Screening results: PubChem BioAssay, several laboratories
ALR H2O2 inh: human ALR oxidase inhibition via reduced H2O2; P55789; purified ALR, DTT oxidation, H2O2 HRP-luminol luminescence; inhibition, % (test concentration not listed); hit rate 3.8% among 290,000; AID 485317;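 active = mean and each replicate at 75% or more; inconclusive = only one of the two met; inactive = neither met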;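 note: stock transfer was 7.5 nL into about 7.5 µL; 0% = neutral wells and 100% = wells with inactivated enzyme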
Target sequence (P55789 whole entry, looked up): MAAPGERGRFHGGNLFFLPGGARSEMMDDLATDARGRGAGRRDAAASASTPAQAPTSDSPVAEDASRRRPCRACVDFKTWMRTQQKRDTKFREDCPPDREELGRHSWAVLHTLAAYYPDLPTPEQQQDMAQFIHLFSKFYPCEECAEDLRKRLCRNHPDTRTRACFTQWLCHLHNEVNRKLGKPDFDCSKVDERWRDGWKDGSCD
B2AR ag: human beta-2 adrenergic receptor agonism by FAP | Am2.2-beta2AR cells, FAP receptor internalization, flow cytometry; reference of the scale not given here | response, % (concentration not given with the values) | hit rate 0.43% among 340,000;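 active = response above a set limit, near 3 SD of response in nonfluorescent compounds, cut at about 42% in these data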;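 note: stock transfer was 100 nL into about 11 µL; a reference agonist was the positive control; negative values mostly stem from fluorescent compounds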
Target sequence (P07550 whole entry, looked up): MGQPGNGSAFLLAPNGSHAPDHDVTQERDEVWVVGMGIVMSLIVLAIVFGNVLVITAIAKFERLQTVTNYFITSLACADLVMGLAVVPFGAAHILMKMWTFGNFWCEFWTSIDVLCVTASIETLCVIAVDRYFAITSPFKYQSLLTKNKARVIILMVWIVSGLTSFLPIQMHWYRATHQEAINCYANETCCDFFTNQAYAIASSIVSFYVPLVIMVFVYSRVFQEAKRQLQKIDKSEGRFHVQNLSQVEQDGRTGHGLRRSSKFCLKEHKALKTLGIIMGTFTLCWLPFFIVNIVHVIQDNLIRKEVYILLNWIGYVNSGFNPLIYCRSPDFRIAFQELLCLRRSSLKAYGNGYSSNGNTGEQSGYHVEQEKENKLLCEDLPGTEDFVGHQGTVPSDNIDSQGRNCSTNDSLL
Vif A3G: HIV-1 Vif–A3G interaction blockers – biochemical, TR-FRET, GST-Vif 1-94, biotin-A3G peptide, dose response retest, primary screen (AID 1117319). TR-FRET GST-Vif / biotin-A3G peptide binding; higher % means a stronger effect; test concentration not given here; strong numbers were not always called active. inhibition, %; hits with a dose series show IC50 in µM. hit rate 0.57% among 260,000;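 active = above the screen mean plus three standard deviations and confirmed in dose response; inconclusive = results disagree or hit not tested in dose response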;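 note: Vif residues 1-94 fused to GST binding biotinylated APOBEC3G peptide 110-148; 0% = full assay without inhibitor and 100% = GST in place of GST-Vif; retest series ran down from 100 µM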
LANA-H2A inh: blocks KSHV LANA binding to histone H2A/H2B | Q9QR71 | cell-free LANA-H2A/H2B peptide, fluorescence polarization | inhibition, % (concentration not given with the values) | hit rate 0.6% among 320,000 | AID 2629; in the data active = inhibition mostly above about 10%, no sharp cut-off; inactive = mostly below about 6.7%;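 note: stock transfer was 7.5 nL into about 10 µL; 0% = median of vehicle wells and 100% = median of positive control wells; one replicate is shown; the record names a cut of 25% in any replicate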
RanGTP-Imp inh: inhibitors of RanGTP-importin-beta interaction, primary screen, biochemical, FRET, CFP-Ran, YFP-importin-beta, homogeneous | cell-free CFP-Ran/YFP-importin-beta FRET ratio | inhibition, % (concentration not given with the values) | hit rate 1.1% among 300,000 | AID 2216;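 active = most replicates above 15%; inconclusive = exactly half above 15%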;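 note: 0% = DMSO wells and 100% = Ran loaded with GDP instead of GTP; wells of about 40 µL received 100 nL stock; the first replicate is given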
HNF4A DNA FP: change in binding of human HNF4 alpha to DNA. P41235. HNF4a-FITC DNA binding, fluorescence polarization, 1 h. activity change, % at 10 µM. hit rate 0.3% among 360,000; in the data active = activity change above about 30%, passing the limit was not always enough;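 note: controls were the assay level and a saturating level of protein; the project sought stronger binding though the title names inhibitors; some compounds called inactive have numbers as strong as hits; positive values seem to mean higher polarization but the record does not say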
Target sequence (P41235 whole entry, looked up): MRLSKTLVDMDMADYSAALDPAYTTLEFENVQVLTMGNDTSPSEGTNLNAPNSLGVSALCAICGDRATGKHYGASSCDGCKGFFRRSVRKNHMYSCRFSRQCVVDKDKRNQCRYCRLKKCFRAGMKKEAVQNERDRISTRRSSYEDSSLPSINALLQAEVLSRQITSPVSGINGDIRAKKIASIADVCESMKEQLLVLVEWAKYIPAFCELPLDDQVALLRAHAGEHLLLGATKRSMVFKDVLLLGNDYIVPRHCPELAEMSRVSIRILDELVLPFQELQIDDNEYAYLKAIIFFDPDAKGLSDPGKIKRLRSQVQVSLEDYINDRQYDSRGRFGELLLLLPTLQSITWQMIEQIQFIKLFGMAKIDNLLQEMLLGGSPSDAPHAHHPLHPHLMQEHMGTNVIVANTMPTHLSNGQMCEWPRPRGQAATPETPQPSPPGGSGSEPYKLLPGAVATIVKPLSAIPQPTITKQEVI
Calb FLC: C. albicans growth modulation with fluconazole; growth inhibition, % (test concentration not listed); hit rate 0.57% among 300,000; C. albicans CaCi-2 (fluconazole-resistant clinical isolate) + fluconazole, Alamar Blue growth, 48 h;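 active = most replicates above 75%; inconclusive = exactly half above 75%; inactive = most below 75%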;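 note: all wells also contain fluconazole at 8 µg/ml as a sub-toxic cotreatment; 0% = median of DMSO wells and 100% = median of geldanamycin control wells; wells of about 8 µL received 7.5 nL stock; the first replicate is given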
The depositor's hits bear a star; ? = inconclusive; . = no result given.

Values run as follows: ALR H2O2 inh | B2AR ag | Vif A3G | LANA-H2A inh | RanGTP-Imp inh | HNF4A DNA FP | Calb FLC
O=C1CCCCC1(c1ccccc1)c1ccccc1
  . | -5 | -13% | . | . | 0.4 | .
N/C(=N\OC(=O)Cc1ccc(-c2ccccc2)cc1)c1ccccn1
  -11 | 9 | 9% | 2.8 | 5.1 | -0.1 | 28
COCc1ccc(C(=O)N2CCC(CCC(=O)Nc3cccc(C)c3)CC2)s1
  -2 | -15 | 1% | -3.2 | -1.9 | 3.0 | -16
O=C(O)C(S)C(S)C(=O)O (stereo not given)
  . | 0 | . | 1.2 | -2.5 | -34 | .
Cc1ccc(S(=O)(=O)N(C)C)cc1NC(=O)CSc1ccc2c(c1)OCCO2
  -13 | -10 | -9% | -5.7 | 1.3 | 0.8 | 4
COc1cc2ccccc2cc1C(=O)NC1CCC(C)CC1 (stereo not given)
  -2 | 0 | . | 2.1 | . | -0.1 | .
COc1cc(NC(=O)c2ccc(Br)o2)ccc1NC(=O)c1ccccc1Cl
  -51 | -6 | 6% | 6.0 | -3.2 | 1.1 | -16
CCn1nc(C)c(CNC(=O)c2cc(COc3ccccc3SC)on2)c1C
  -4 | -5 | . | -8.7 | 1.7 | -2.9 | -1
CN(CC1CCN(CCc2cccc(C(F)(F)F)c2)CC1)C(=O)c1ccccc1
  -9 | -11 | . | -1.5 | -1.8 | 3.0 | -1
Cc1ccc(O)c(-c2cc(C(=O)NCc3ccc4c(c3)OCO4)[nH]n2)c1
  . | 1 | . | . | 3.6 | -1.6 | -2
Cn1c2ccccc2c2cnn(CC(=O)Nc3cccc(F)c3)c(=O)c21
  . | -11 | -8% | -1.9 | 7.1 | -1.5 | -8
Cc1ccc(CNC(=O)c2ccc(S(=O)(=O)N(C)C)cc2)n1C
  -27 | 5 | 4% | 2.0 | -4.2 | -0.5 | -2
Cc1cccc(C)c1OC(=O)CN1C(=O)c2ccccc2C1=O
  1 | 3 | . | 3.1 | 1.7 | -4.2 | -10
COC(=O)C1=C(C)NC(=O)/C1=C\c1cc(C)n(-c2cc(C)cc(C)c2)c1C
  -4 | 0 | ? | 1.5 | -2.3 | 2.3 | 35
COCCCN1CN=C(Nc2nc3ccccc3o2)NC1
  -3 | -4 | -5% | -0.7 | -0.9 | 5.5 | 11
CCOC(=O)Cn1nnnc1C
  . | 4 | -4% | 2.6 | 3.6 | -2.3 | -4
CC1(C)CC(=O)C(C=NCCN2CCN(CCc3ccccc3)CC2)=C(O)C1
  -2 | -7 | 13% | 0.4 | 2.0 | -4.4 | 0
Cc1cc(C)c(S(=O)(=O)NCCCn2ccnc2)c(C)c1
  -1 | -11 | . | -6.6 | 2.6 | -0.3 | -6
COC(=O)c1ccc(OC)c(Cn2c(=O)n(C)c(=O)c3ccccc32)c1
  -5 | 0 | . | 4.6 | ? | -2.1 | -3
Cc1cc(N(C)Cc2ccccc2)nc2cc(O)ccc12
  98* | 7 | -6% | -0.5 | 7.3 | 2.0 | -1
COCCN(C(=O)COC(=O)c1ccc(C)s1)c1c(N)n(Cc2ccccc2)c(=O)[nH]c1=O
  0 | -2 | -5% | 2.7 | 1.2 | 2.8 | -1
CC1CCCN(C(=O)c2ccc3c(c2)OCCO3)C1 (stereo not given)
  . | 0 | -7% | 3.9 | . | -1.1 | .
Cc1c(C(=O)N2CCC(N3CCSCC3)CC2)oc2c(F)cccc12
  1 | -3 | . | -2.9 | -0.6 | 7.4 | 8
O=C(Nc1cccc(C(=O)N2CCCC2)c1)C1CCCC1
  . | -8 | 2% | . | . | 0.5 | .
O=C(Nc1ccccc1F)C1CCN(C(=O)NC2CCCCC2)CC1
  2 | -4 | . | -0.2 | 1.2 | 6.4 | -3
O=C(NCCN1CCOCC1)c1c(O)nc2ccccn2c1=O
  -4 | -4 | . | -1.3 | 2.7 | 1.0 | 4
COC(=O)[C@@H](N)CS
  . | -2 | 25% | -0.6 | 0.1 | 2.4 | .
CN(CC(=O)Nc1cccc(F)c1)C(=O)CCC1CCCCC1
  . | 1 | 1% | 0.1 | 2.6 | -0.8 | 3
O=C(CSc1ccsc1[N+](=O)[O-])N1CCCCCC1
  -1 | 11 | 11% | -4.9 | -3.4 | 0.8 | -4
O=C(Nc1ccccc1)N1CCCN(Cc2ccccc2F)C1
  -10 | -4 | -2% | 3.3 | -2.9 | -3.3 | -9
CCOC(=O)N1CCN(Cc2nc3c(c(=O)n(C)c(=O)n3C)n2Cc2ccccc2)CC1
  -3 | -2 | 0% | 3.3 | 1.0 | -1.4 | 1
Cc1ccc(NC(=O)c2ccccc2OCC(=O)Nc2cccc(Cl)c2C)nc1
  -6 | . | . | -4.6 | -1.8 | . | -14
OC(COC(c1ccc(F)cc1)c1ccc(F)cc1)CN1CCCC1 (stereo not given)
  -3 | 2 | -4% | 7.0 | -0.9 | 4.2 | 3
Cc1cccc(N(CC(=O)NCCc2ccccc2)C(=O)CCC(=O)Nc2ccccn2)c1C
  . | -15 | 6% | 4.5 | 0.1 | -1.0 | 2
CC(C)Cc1ccc(S(=O)(=O)N2CCN(c3ccccn3)CC2)cc1
  -7 | 9 | -4% | 4.3 | ? | -1.6 | 12
CN(c1ccccc1)c1ccc(/C=C(\C#N)c2nnc3n2CCCCC3)cc1[N+](=O)[O-]
  3 | 0 | -1% | 2.3 | 0.1 | 3.8 | -21
Cc1ccc2c(c1)-c1c(ssc1=S)C(C)(C)N2C(=O)c1ccco1
  -10 | -2 | 18% | 0.9 | -3.1 | -4.3 | 0
O=C(NN1CCOCC1)c1cccc(Br)c1
  6 | -3 | . | -0.9 | ? | 3.6 | -10
CCCN(CC(=O)Nc1ccccc1C)C(=O)CCCOc1ccc(Br)cc1
  -5 | -18 | 9% | . | . | 0.3 | .
COc1ccc(Cn2c(O)c(C=Nc3ccc(C)cc3)c3ccccc3c2=O)cc1
  -4 | -4 | -3% | 0.5 | -3.6 | 3.0 | -6

Looked up by compound from the entries so far (two):
Values run as follows: ALR H2O2 inh | B2AR ag | Vif A3G | LANA-H2A inh | RanGTP-Imp inh | HNF4A DNA FP | Calb FLC
Cc1ccc(NC(=O)c2ccccc2OCC(=O)Nc2cccc(Cl)c2C)nc1
  -6 | . | . | -4.6 | -1.8 | . | -14
O=C(NN1CCOCC1)c1cccc(Br)c1
  6 | -3 | . | -0.9 | ? | 3.6 | -10

Additional compounds follow:
Values run as follows: ALR H2O2 inh | B2AR ag | Vif A3G | LANA-H2A inh | RanGTP-Imp inh | HNF4A DNA FP | Calb FLC
CCC1CCCCN1CCCNC(=O)Cn1ncc2c([nH]c3ccc(C)cc32)c1=O (stereo not given)
  -3 | 6 | 9% | -4.6 | 0.0 | 5.0 | 13
COCCN(Cc1ccccc1)C(=O)c1ccc2c(c1)NC(=O)CS2
  -2 | -7 | 1% | -4.2 | . | -1.5 | .
COc1cc(C)c(C(=O)Oc2cc(C)c(C(=O)O)c(O)c2C)c(O)c1C(=O)O
  22 | 1 | . | 4.6 | -1.9 | -2.2 | -6
COc1ccc(CCNS(=O)(=O)c2cccc([N+](=O)[O-])c2)cc1OC
  -1 | -3 | . | -1.6 | 3.9 | -1.0 | -3
CCCNC(=O)C12CCC(C)(c3nc4cc(C)c(C)cc4nc31)C2(C)C (stereo not given)
  -10 | 21 | -2% | -5.0 | . | -4.8 | 110*
COc1ccc2ccc(O)c(CN(C)CC(=O)Nc3ccccc3C(F)(F)F)c2c1
  -47 | 9 | . | -1.8 | -3.1 | 0.2 | 3
CCC(c1nnnn1Cc1ccc(F)cc1)N1CCN(C2CCCCC2)CC1 (stereo not given)
  3 | 14 | -8% | -4.9 | 7.8 | -3.0 | -10
COc1cccc(CN(Cc2ccccc2F)S(=O)(=O)c2ccc(S(=O)(=O)NCc3ccccc3)cc2)c1
  0 | 2 | ? | -0.7 | 0.4 | 1.6 | 0
CCOc1ccc(N2C(=O)/C(=C/c3ccc(C)o3)N(C)C2=S)cc1
  -1 | 2 | . | -0.8 | 3.0 | 5.9 | -4
COc1ccc2nc3oc(C(=O)N4CCN(c5cccc(C(F)(F)F)c5)CC4)cc3cc2c1
  -7 | 26 | 8% | 3.8 | -0.3 | -1.9 | -1
Cc1nn2c(-c3ccc(S(=O)(=O)N4CCN(C)CC4)o3)nnc2c2ccccc12
  0 | 3 | . | 3.5 | 1.8 | 2.6 | 11
O=c1n(Cc2ccc(Cl)cc2)c2sc3c(c2c2ncnn12)CCCC3
  -32 | 2 | -3% | -4.9 | 3.3 | -0.6 | -1
O=C(CCCN1C(=O)C2CCCCN2C1=O)N1CCN(c2ccc([N+](=O)[O-])cc2)CC1 (stereo not given)
  8 | 7 | -8% | -1.0 | -2.6 | 0.5 | -3
Cc1ccc(-c2c(C#N)c(N)nc3c2CCCCCC3)o1
  -2 | 2 | -5% | -2.2 | -4.6 | 1.5 | 4
CCCCOc1c(Br)cc(/C=C2\N=C(C)OC2=O)cc1OCC
  11 | 7 | 0% | 0.4 | -0.9 | 0.3 | 12
CCc1ccc2c(c1)cc(CN(C(=S)Nc1ccc(Cl)cc1)C1CC1)c1nnnn12
  0 | 4 | 2% | -0.6 | -3.3 | 0.6 | 0
O=C(CCSc1nc2cc(Cl)ccc2o1)N1CCOCC1
  99* | 6 | -1% | -4.0 | -2.9 | 0.5 | 11
CCN(CC)C(=O)c1[nH]cnc1C(=O)N[C@@H](Cc1ccccc1)C(=O)OC(C)(C)C
  . | -3 | . | -2.8 | -3.3 | -0.9 | 0
CC(=O)c1ccc(NC(=O)C(C)N(C)CC(=O)Nc2ccccc2Cl)cc1 (stereo not given)
  -4 | -13 | . | 2.7 | -1.4 | 1.9 | -8
COC(=O)/C(N=Nc1cccc(C(F)(F)F)c1)=C(\C)O
  -8 | -3 | ? | -8.0 | 0.3 | 0.8 | -4

Some of the entries so far, with each value named:
> CCCNC(=O)C12CCC(C)(c3nc4cc(C)c(C)cc4nc31)C2(C)C (stereo not given)
  ALR H2O2 inh: -10; B2AR ag: 21; Vif A3G: -2%; LANA-H2A inh: -5.0; RanGTP-Imp inh: .; HNF4A DNA FP: -4.8; Calb FLC: 110*

> COc1ccc2ccc(O)c(CN(C)CC(=O)Nc3ccccc3C(F)(F)F)c2c1
  ALR H2O2 inh: -47; B2AR ag: 9; Vif A3G: .; LANA-H2A inh: -1.8; RanGTP-Imp inh: -3.1; HNF4A DNA FP: 0.2; Calb FLC: 3

Continued.
Values run as follows: ALR H2O2 inh | B2AR ag | Vif A3G | LANA-H2A inh | RanGTP-Imp inh | HNF4A DNA FP | Calb FLC
c1ccc(-c2noc(CN3CCN(c4cnccn4)CC3)n2)cc1
  -1 | -7 | -5% | -4.1 | -0.6 | -1.0 | -11
Cn1ccnc1SCC(=O)Nc1cccc(O)c1
  -10 | 1 | 2% | 2.1 | 6.8 | 0.0 | 37
COc1ccc(S(=O)(=O)NC2CC2)cc1-n1cnnn1
  -3 | 12 | . | 0.0 | -3.0 | 0.2 | 19
COC(=O)CSc1nnc([C@H](CC(C)C)NC(=O)OC(C)(C)C)o1
  -1 | 8 | ? | 5.8 | 0.6 | -0.7 | -13
CCOc1ccc(OCc2ccc(C(=O)N/N=C(\C)c3ccccn3)cc2)cc1
  -12 | 11 | 5% | 2.7 | 7.8 | 0.6 | ?
COc1ccc(CNc2ncc(-c3ccc(F)cc3)n2C)cc1OC
  54 | 4 | -6% | -0.9 | 0.0 | -0.6 | -1
CCN(c1ccccc1)S(=O)(=O)c1ccc(NC(=O)C(C)(C)C)cc1
  . | 3 | 1% | . | 0.6 | -0.2 | 5
COc1ccccc1C(=O)N/C(=C/c1ccccc1)C(=O)Nc1ccc(C(=O)O)cc1
  -5 | 9 | . | -3.7 | ? | -3.8 | 2
COc1ccc(NC(=O)CN(C)C(=O)C2(c3ccccc3)CCCC2)cc1
  -1 | 1 | 0% | 5.2 | . | 1.7 | .
